Vaccinia stage = Vaccinia orthopox stage-specific inhibition; Vaccinia-infected cells, mCherry/Venus stage reporter fluorescence; stronger effect = lower value; some inactives read as strong as hits; activity change (mCherry), % (no concentration beside the values); hit rate 0.01% among 89,000; AID 1053133;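 active = mCherry past -33% and 40 or more points under the early reporter, replicates agreeing; inconclusive = past -33% without that gap or agreement; tested in A549 cells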;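 note: scaled between vehicle wells and reference inhibitor wells; 23 nL library stock went into each well; one replicate is shown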
Vaccinia stage Venus = recorded beside Vaccinia stage, whose call it bears; activity change (Venus), %; measured here: Venus reporter, other viral stage;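 negative = less Venus signal; first of two replicates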
The depositor's hits bear a star; ? = inconclusive; / = no result given; & = joins results of further samples. An excerpt; rates above refer to the full screens.

SMILES	Vaccinia stage	Vaccinia stage Venus
O=C(Nc1cc(F)ccc1F)N[C@H]1CC[C@H](CCn2cc(C3CC3)nn2)O[C@@H]1CO	-0.7	5.3
Cc1noc(C)c1S(=O)(=O)Nc1ccc2c(c1)C(=O)N([C@@H](C)CO)C[C@H](C)[C@@H](CN(C)S(C)(=O)=O)O2	5.7	6.6
CO[C@@H]1CN(C)C(=O)c2ccc(NS(=O)(=O)c3cccc(C)c3)cc2OC[C@@H](C)N(Cc2cc(F)ccc2F)C[C@H]1C	?	/
C[C@H](CO)N1C[C@H](C)[C@H](CN(C)C(=O)c2ccccc2F)Oc2ncc(-c3ccccc3)cc2C1=O	0.9	-5.3
C[C@@H]1CN([C@H](C)CO)C(=O)CCCn2nncc2CO[C@H]1CN(C)S(=O)(=O)c1ccc2c(c1)OCCCO2	7.4	0.0
O=C(C[C@H]1CC[C@@H]2[C@H](COC[C@H](O)CN2Cc2cc(F)ccc2F)O1)NCc1ccc(F)cc1	-6.1	-2.8
C[C@H]1CN([C@@H](C)CO)C(=O)c2cc(-c3cncnc3)cnc2O[C@@H]1CN(C)C(=O)c1ccccc1F	4.7	-3.8
COc1ccccc1S(=O)(=O)N1CC[C@@H]2[C@@H](CO)Nc3ccc(-c4ccc(C#N)cc4)cc3[C@@H]21	?	/
COc1ccc2c3c([nH]c2c1)[C@H](CO)N(C(=O)NC(C)C)CC31CCN(C(=O)c2cnccn2)CC1	11.2	9.2
C[C@@H]1CCCCO[C@H](CN(C)S(=O)(=O)c2ccc(F)cc2)[C@@H](C)CN([C@@H](C)CO)C(=O)c2cc(NC(=O)Nc3cccc4ccccc34)ccc2O1	13.7	18.7
Cc1noc(C)c1NC(=O)Nc1ccc2c(c1)C(=O)N([C@@H](C)CO)C[C@@H](C)[C@H](CN(C)S(=O)(=O)c1cccs1)O2	6.6	-7.1
CNC[C@@H]1OCCCC[C@@H](C)Oc2ccc(NC(=O)C3CCCCC3)cc2C(=O)N([C@H](C)CO)C[C@@H]1C	3.2	-1.7
N#C[C@@H]1[C@H](c2ccccc2-c2ccccc2F)[C@@H](CO)N1C(=O)c1ccccn1	-20.6	-16.7
C[C@@H]1CN([C@H](C)CO)C(=O)Cc2cc(NS(=O)(=O)c3ccc(Cl)cc3)ccc2O[C@@H]1CN(C)Cc1ccc(C(=O)O)cc1	14.2	6.8
CC(C)NC(=O)Nc1ccc2c(c1)CC(=O)N([C@@H](C)CO)C[C@H](C)[C@@H](CN(C)CC1CC1)O2	13.6	6.7
Cc1ccc(S(=O)(=O)Nc2ccc3c(c2)C(=O)N([C@H](C)CO)C[C@@H](C)[C@@H](CN(C)Cc2ccc(C(=O)O)cc2)O3)cc1	2.6	0.3
Cc1noc(C)c1NC(=O)N(C)C[C@H]1Oc2ccc(NS(=O)(=O)c3c(C)noc3C)cc2CC(=O)N([C@H](C)CO)C[C@@H]1C	16.2	11.3
C[C@@H]1CN([C@@H](C)CO)C(=O)c2cccc(NC(=O)c3cnccn3)c2O[C@H]1CN(C)Cc1ccc(C(=O)O)cc1	14.0	18.0
COCC(=O)N1CCCCN2[C@H](CO)[C@@H](c3ccc(C#Cc4ccccc4)cc3)[C@H]2C1	-22.6	-16.7
N#C[C@@H]1[C@@H](c2ccc(-c3ccc(F)cc3)cc2)[C@H](CO)N1c1nc(-c2ccccc2)cs1	-9.7	0.3
CC(C)NC(=O)Nc1cccc2c1O[C@H](CN(C)CC1CC1)[C@@H](C)CN([C@H](C)CO)C2=O	10.8	9.5
C[C@H]1CN([C@@H](C)CO)C(=O)c2cc(NS(=O)(=O)c3ccc(F)cc3)ccc2O[C@@H]1CN(C)S(=O)(=O)c1ccc(Cl)cc1	0.7	3.9
O=C(C[C@H]1C=C[C@H](NC(=O)Nc2ccc(C(F)(F)F)cc2)[C@@H](CO)O1)NCCN1CCCC1	3.7	7.8
C[C@H](O)C#Cc1ccc2c(c1)O[C@@H](CN(C)CC1CCCC1)[C@H](C)CN([C@H](C)CO)S2(=O)=O	-13.4	-6.8
COc1ccc2c3c([nH]c2c1)[C@H](CO)N(C(=O)c1ccncc1)CC31CN(C(=O)C2CCC2)C1	20.9	10.9
CO[C@@H]1CN(C)C(=O)c2cc(NC(=O)c3cccc(F)c3)ccc2OC[C@@H](C)N(CC2CC2)C[C@@H]1C	-3.9	-2.2
COCC(=O)N1CC2(CCN(Cc3cccnc3)CC2)c2c(n(C)c3cc(OC)ccc23)[C@H]1CO	-14.1	-19.1
COc1ccc(S(=O)(=O)Nc2cccc3c2O[C@H](CN(C)Cc2ccc(C(=O)Nc4ccccc4N)cc2)[C@H](C)CN([C@H](C)CO)C3=O)cc1	-21.2	-21.2
CCCNC(=O)[C@@H]1[C@@H](CO)[C@@H]2Cn3c(cccc3=O)[C@H]1N2Cc1cccc(Cl)c1	10.3	9.7
C[C@@H]1CCCCO[C@H](CN(C)C(=O)Nc2ccc3c(c2)OCO3)[C@H](C)CN([C@@H](C)CO)C(=O)c2cc(NS(C)(=O)=O)ccc2O1	30.6	16.7
COc1ccc2c3c(n(C)c2c1)[C@@H](CO)N(C)CC31CN(S(=O)(=O)c2cccc(C)c2)C1	-18.1	-19.1
N#C[C@H]1[C@H](c2ccccc2C2=CCCC2)[C@@H](CO)N1C(=O)CN1CCOCC1	5.4	-0.1
CCC(=O)N(C)C[C@@H]1Oc2cc(C#C[C@H](C)O)ccc2S(=O)(=O)N([C@@H](C)CO)C[C@@H]1C	20.6	31.1
CC(C)NC(=O)Nc1ccc2c(c1)C(=O)N([C@H](C)CO)C[C@@H](C)[C@H](CN(C)C(=O)NC1CCCCC1)OCCCC[C@@H](C)O2	-7.2	3.7
C[C@H]1CN([C@@H](C)CO)C(=O)CCCn2cc(nn2)CO[C@@H]1CN(C)Cc1ccc(C(F)(F)F)cc1	-0.9	8.7
C[C@@H]1CN([C@H](C)CO)C(=O)Cc2cc(NS(=O)(=O)c3ccccc3)ccc2O[C@H]1CN(C)Cc1ccc(C(=O)O)cc1	7.0	2.9
COc1cccc(-c2ccc3n(c2=O)C[C@H]2[C@H](CO)[C@@H](C(=O)N(C)C)[C@@H]3N2Cc2cncnc2)c1	-0.4	-8.6
Cc1ccc(S(=O)(=O)N2C[C@@H]3[C@H](c4ccccc42)[C@H](CO)N3Cc2cccnc2)cc1	-24.8	-13.5
C[C@H](CO)N1C[C@H](C)[C@@H](CN(C)S(=O)(=O)c2cccs2)Oc2ccc(NC(=O)Nc3ccccc3)cc2CC1=O	11.1	7.8
CC(C)NC(=O)Nc1ccc2c(c1)C(=O)N([C@@H](C)CO)C[C@H](C)[C@@H](CN(C)C(=O)Nc1ccc(F)cc1)OCCCC[C@@H](C)O2	2.0	7.7
CCCNC(=O)[C@@H]1[C@@H](CO)[C@@H]2Cn3c(ccc(-c4ccc(F)cc4)c3=O)[C@H]1N2C	5.3	11.6
C[C@@H]1CCCCO[C@H](CN(C)CC2CC2)[C@@H](C)CN([C@H](C)CO)C(=O)c2cc(NC(=O)Nc3ccc4c(c3)OCO4)ccc2O1	11.9	3.6
C[C@@H]1CCCCO[C@H](CN(C)C(=O)Cc2ccccc2)[C@H](C)CN([C@H](C)CO)C(=O)c2cc(NS(=O)(=O)c3ccccc3)ccc2O1	?	/
Cc1noc(C)c1NC(=O)N(C)C[C@H]1Oc2ccc(NC(=O)Cc3ccccc3)cc2CC(=O)N([C@H](C)CO)C[C@@H]1C	3.4	10.7
C[C@H]1CN([C@@H](C)CO)C(=O)c2cc(NS(=O)(=O)c3cccs3)ccc2O[C@H]1CN(C)Cc1ccc(C(F)(F)F)cc1	1.0	-6.9
C[C@@H]1CCCCO[C@H](CN(C)C(=O)Nc2cccc3ccccc23)[C@H](C)CN([C@@H](C)CO)C(=O)c2cc(NS(=O)(=O)c3ccc(Cl)cc3)ccc2O1	-8.0	3.7
COc1ccc2c3c(n(C)c2c1)[C@H](CO)N(C(C)=O)CC31CCN(C(=O)C2CC2)CC1	20.5	8.5
CO[C@H]1CN(C)C(=O)c2ccc(NC(=O)Nc3c(C)noc3C)cc2OC[C@@H](C)N(C)C[C@H]1C	2.3	11.1
C[C@@H](NC(=O)C[C@@H]1C[C@H]2c3cc(NS(C)(=O)=O)ccc3O[C@H]2[C@H](CO)O1)c1ccccc1	-0.1	-4.1
COc1ccc(NC(=O)Nc2ccc3c(c2)[C@H]2C[C@H](CC(=O)N4CCN(C)CC4)O[C@@H](CO)[C@H]2O3)cc1	-1.2	1.0
O=C(c1ccccn1)N1C[C@H]2[C@@H](c3ccccc31)[C@H](CO)N2C(=O)CC1CC1	3.2	24.5
COc1ccc2c3c([nH]c2c1)[C@H](CO)N(C(=O)C1CC1)CC31CCN(C)CC1	5.4	5.6
CNC[C@@H]1Oc2ccc(NC(=O)Nc3ccc(F)cc3)cc2CC(=O)N([C@@H](C)CO)C[C@@H]1C	8.0	-0.4
C[C@@H]1CCCCO[C@H](CN(C)C(=O)Cc2ccccc2)[C@H](C)CN([C@H](C)CO)C(=O)c2cc(NS(=O)(=O)c3cn(C)cn3)ccc2O1	14.4	7.7
COc1ccc(S(=O)(=O)Nc2ccc3c(c2)C(=O)N([C@H](C)CO)C[C@H](C)[C@@H](CN(C)Cc2ccc4c(c2)OCO4)OCCCC[C@@H](C)O3)cc1	-22.9	-16.9
C[C@H]1CN([C@@H](C)CO)C(=O)c2cccc(NC(=O)Nc3ccccc3)c2O[C@H]1CN(C)C(=O)NC1CCCCC1	?	/
CN1c2ccc(-c3ccccc3)cc2[C@H]2[C@H](CCN2S(=O)(=O)c2ccccc2F)[C@@H]1CO	?	/
C[C@@H]1CN([C@@H](C)CO)C(=O)c2cc(NC(=O)Cc3cn(C)c4ccccc34)ccc2O[C@@H]1CN(C)Cc1ccc(C(=O)O)cc1	5.9	1.7
C[C@@H]1CN([C@H](C)CO)S(=O)(=O)c2ccc(C#Cc3ccccn3)cc2O[C@H]1CN(C)Cc1cccc(F)c1	-16.2	-18.0
COc1ccc(S(=O)(=O)Nc2ccc3c(c2)C(=O)N([C@@H](C)CO)C[C@@H](C)[C@@H](CN(C)C)OCCCC[C@H](C)O3)cc1	11.2	1.5

Remaining list, next part:
SMILES	Vaccinia stage	Vaccinia stage Venus
COc1ccc(C#Cc2ccc3c(c2)[C@H]2[C@H](CCN2C(=O)c2ccncc2)[C@@H](CO)N3)cc1	1.8	2.5
Cc1ccc(S(=O)(=O)N[C@H]2CC[C@H](CCn3cc(C4(O)CCCC4)nn3)O[C@@H]2CO)cc1	-5.2	-1.7
O=C(Nc1ccc(Cl)c(Cl)c1)N[C@H]1CC[C@@H](CCn2cc(C3CC3)nn2)O[C@@H]1CO	7.9	7.4
COc1ccc(S(=O)(=O)N(C)C[C@@H]2OCCCC[C@H](C)Oc3ccc(NS(=O)(=O)c4cccs4)cc3C(=O)N([C@H](C)CO)C[C@H]2C)cc1	-26.2	-14.0
CCN(C[C@@H]1[C@@H](c2ccccc2)[C@H](CO)N1S(C)(=O)=O)C(=O)C1CC1	16.7	12.0
COC(=O)C(CC#Cc1ccc2c(c1)[C@]1(C(=O)N2)[C@H](C(=O)N2CCc3cc(OC)c(OC)cc3C2)[C@H]2C(=O)O[C@H](c3ccccc3)[C@H](c3ccccc3)N2[C@@H]1c1ccc(OCCO)cc1)C(=O)OC	18.9	22.3
COCCNC(=O)C[C@H]1C[C@H]2c3cc(NC(=O)NC4CCCCC4)ccc3O[C@H]2[C@@H](CO)O1	5.6	5.7
CCCNC(=O)N1CC2(C1)CN(S(C)(=O)=O)[C@@H](CO)c1c2c2ccc(OC)cc2n1C	1.5	-4.6
C[C@H](CO)N1C[C@H](C)[C@@H](CN(C)C(=O)Nc2ccccc2)OCc2cnnn2CCCC1=O	1.1&9.1	-5.3&10.6
O=C(C[C@@H]1C[C@@H]2c3cc(NS(=O)(=O)c4ccc(F)cc4)ccc3O[C@@H]2[C@H](CO)O1)N1CCCCC1	-3.4	-2.0
C[C@H]1CN([C@@H](C)CO)C(=O)c2cc(NS(=O)(=O)c3ccc(Cl)cc3)ccc2O[C@H]1CN(C)S(=O)(=O)c1ccc(F)cc1	0.7	-4.5
CO[C@@H]1CN(C)C(=O)c2ccc(NS(=O)(=O)CC(F)(F)F)cc2OC[C@@H](C)N(C)C[C@@H]1C	4.4	8.1
O=C(C1CC1)N1CC2(C1)[C@H](c1ccccc1)[C@@H](CO)N2Cc1ccc(Cl)cc1	5.5	5.3
C[C@@H]1CN([C@H](C)CO)C(=O)Cc2cc(NC(=O)Cc3ccccc3)ccc2O[C@H]1CN(C)Cc1ccc(C(=O)Nc2ccccc2N)cc1	15.0	-4.1
COc1cccc(-c2ccc3n(c2=O)C[C@H]2[C@H](CO)[C@@H](C(=O)NC4CCC4)[C@@H]3N2C)c1	10.8	7.0
C[C@@H]1CN([C@H](C)CO)C(=O)c2cc(NS(=O)(=O)c3cccs3)ccc2O[C@H]1CN(C)Cc1ccc(Cl)c(Cl)c1	15.1	3.2
CC(=O)N1[C@@H](CO)[C@@H](c2ccccc2)[C@@H]1CN(C)C(=O)CN1CCOCC1	4.4	9.6

Some of the entries above, set out differently.
COc1cccc(-c2ccc3n(c2=O)C[C@H]2[C@H](CO)[C@@H](C(=O)NC4CCC4)[C@@H]3N2C)c1
- Vaccinia stage: 10.8
- Vaccinia stage Venus: 7.0

Cc1ccc(S(=O)(=O)N[C@H]2CC[C@H](CCn3cc(C4(O)CCCC4)nn3)O[C@@H]2CO)cc1
- Vaccinia stage: -5.2
- Vaccinia stage Venus: -1.7

CC(=O)N1[C@@H](CO)[C@@H](c2ccccc2)[C@@H]1CN(C)C(=O)CN1CCOCC1
- Vaccinia stage: 4.4
- Vaccinia stage Venus: 9.6

O=C(Nc1ccc(Cl)c(Cl)c1)N[C@H]1CC[C@@H](CCn2cc(C3CC3)nn2)O[C@@H]1CO
- Vaccinia stage: 7.9
- Vaccinia stage Venus: 7.4

Assay outcomes as filed in PubChem.
